# ID4 SMM = ID4 (human) binding | P47928 | 31,000 tested, 1.2% active | small molecule microarray, Flag-ID4 binding, fluorescence F/B | calls only | AID 624137;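 active means spot signal over background at p below 0.07 in all four prints; compounds were printed on slides so no solution concentration is given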;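 further: a binder raises fluorescence above local background on the spot; about 2 pmol printed per array spot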
# Target sequence (P47928 whole entry, looked up): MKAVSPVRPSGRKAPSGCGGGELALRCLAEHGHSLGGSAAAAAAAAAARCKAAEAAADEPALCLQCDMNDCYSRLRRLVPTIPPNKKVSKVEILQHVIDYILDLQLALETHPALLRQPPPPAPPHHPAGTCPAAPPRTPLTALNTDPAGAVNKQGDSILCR
# Calls only; i = inactive. A portion of the library (hit frequency here may not be typical).
cpd	mol	ID4 SMM
1	C[C@@H]1CN([C@@H](C)CO)C(=O)c2cc(C#CCN(C)C)cnc2O[C@@H]1CN(C)C(=O)c1cccc(F)c1	i
2	COc1ccc(-c2nnc(SCC(=O)NC(C)(C)C)n2-c2ccccc2)cc1	i
3	CCC(=O)N(C)C[C@@H]1Oc2ncc(-c3ccc(F)cc3)cc2C(=O)N([C@H](C)CO)C[C@H]1C	i
4	C[C@@H]1CN([C@@H](C)CO)C(=O)c2cc(-c3ccccc3)cnc2O[C@@H]1CN(C)Cc1cccnc1	i
5	O=C(O)C[C@H]1C=C[C@H](NC(=O)Nc2ccccc2)[C@@H](CO)O1	i
6	CCCC(=O)Nc1ccc2c(c1)C(=O)N(C)C[C@@H](OC)[C@H](C)CN(Cc1ccncc1)[C@H](C)CO2	i
7	CCCn1c(=O)c2[nH]c(C3CCCC3)nc2n(CCC)c1=O	i
8	COc1ccccc1S(=O)(=O)N(C)C[C@@H]1OCc2ccccc2-c2c(n(C)c3ccccc23)C(=O)N([C@@H](C)CO)C[C@@H]1C	i
9	CN/C=C1\C(=O)C(C)(C)Oc2ccc3ccc(=O)oc3c21	i
10	COc1ccccc1-c1cnc2c(c1)C(=O)N([C@H](C)CO)C[C@@H](C)[C@H](CN(C)Cc1cccnc1)O2	i
11	CC(=O)N(Cc1ccc(C(C)C)cc1)c1ccc2oc(-c3ccccc3)nc2c1	i
12	Cc1nc(SCC(=O)NCc2ccccc2)c2c(C)c(C)sc2n1	i
13	COc1cc(OC)c(NC(=O)CN(C)S(=O)(=O)c2cc(Cl)ccc2Cl)cc1Cl	i
14	CN(C)CCCN1c2ccccc2CCc2ccc(Cl)cc21	i
15	O=C(CN1C(=O)C2C3C=CC(C4CC34)C2C1=O)Nc1ccc(Oc2ccccc2Cl)cc1 (stereo not drawn)	i
16	COCCNC(=O)C[C@H]1C[C@H]2c3cc(NC(=O)Nc4ccccc4)ccc3O[C@H]2[C@H](CO)O1	i
17	Cc1ccc(Cl)cc1NC(=O)C(C)NS(=O)(=O)c1ccc(Br)cc1 (stereo not drawn)	i
18	O=C(C[C@@H]1CC[C@H](NC(=O)c2ccncc2)[C@H](CO)O1)NCC1CC1	i
19	O=C(CSc1nnc(-c2ccco2)o1)N1c2ccccc2CCc2ccccc21	i
20	C[C@@H]1CN([C@H](C)CO)C(=O)c2cc(C3=CCCC3)cnc2O[C@@H]1CN(C)Cc1ccc(F)cc1	i
21	O=C(CSc1nnc(-c2ccccc2O)n1-c1ccccc1)NC1CCCCC1	i
22	COc1ccc(C(=O)n2nc(-c3ccc(Cl)cc3)nc2NCc2ccco2)cc1	i
23	COc1ccc(NC(=O)Nc2ccc3c(c2)[C@@H]2C[C@@H](CC(=O)NCc4ccccn4)O[C@@H](CO)[C@@H]2O3)cc1	i
24	CS(=O)(=O)N(CC(=O)NC1CCCCC1)c1ccc(F)c(Cl)c1	i
25	FC(F)(F)c1ccc2nc(SCc3ccc(Br)cc3)[nH]c2c1	i

cpd	mol	ID4 SMM
26	COc1ccc(C(=O)CSc2ncn[nH]2)cc1OC	i
27	CN(CC(=O)Nc1ccc(Cl)c(Cl)c1)S(=O)(=O)c1ccc2ccccc2c1	i
28	Cc1ccc(-c2cnc3c(c2)C(=O)N([C@H](C)CO)C[C@@H](C)[C@@H](CN(C)CC2CCCC2)O3)cc1	i
29	COc1ccc(Nc2ncnc3c2cnn3Cc2ccc(C)cc2)cc1	i
30	O=C(NC(Cc1ccc(F)cc1)C(=O)O)c1ccccc1 (stereo not drawn)	i
31	CCCc1cn(CC[C@@H]2CC[C@@H](NC(=O)C3CCCC3)[C@@H](CO)O2)nn1	i
32	O=C(N[C@H]1CC[C@@H](CC(=O)N2CCc3ccccc3C2)O[C@H]1CO)C1CC1	i
33	CCc1cccc2c(CCNC(=O)COc3ccc(F)cc3F)c(C)[nH]c12	i
34	C[C@@H]1CN([C@@H](C)CO)S(=O)(=O)c2ccc(-c3ccccc3)cc2O[C@@H]1CN(C)CC1CC1	i
35	C[C@H](CO)N1C[C@H](C)[C@@H](CN(C)Cc2ccccc2)Oc2ncc(-c3cccc(C#N)c3)cc2C1=O	i
36	Cc1cccc(-c2nnc(SCC(=O)Nc3cccc(C(F)(F)F)c3)n2-c2ccccc2)c1	i
37	C[C@H](CO)N1C[C@H](C)[C@H](CN(C)Cc2ccncc2)Oc2ncc(C#CC3CCCC3)cc2C1=O	i
38	O=C(C[C@@H]1C=C[C@@H](NS(=O)(=O)c2cccc(F)c2)[C@@H](CO)O1)N1CCCCC1	i
39	CCn1c(SCC(=O)Nc2ccc(C)cc2)nnc1-c1cccnc1	i
40	CNC[C@H]1Oc2cc(C#CCC3CCCC3)ccc2S(=O)(=O)N([C@@H](C)CO)C[C@@H]1C	i
41	O=C(CSc1nc(-c2ccccc2)cc(=O)[nH]1)Nc1ccccc1Cl	i
42	COc1ccc(CCNc2ncnc3scc(-c4cccs4)c23)cc1OC	i
43	CCOc1ccc(NC(=O)CSc2nnc(-c3cccs3)n2C)cc1	i
44	CN(Cc1nc(-c2ccncc2)no1)S(=O)(=O)c1ccc(Br)cc1	i
45	COc1cccc(NC(=O)CSc2nnnn2C)c1	i
46	C[C@H]1CN([C@@H](C)CO)S(=O)(=O)c2ccc(C#CC3CCCC3)cc2O[C@H]1CN(C)Cc1cncnc1	i
47	O=C(O)Cn1cc(C(=O)C2CCCCC2)c2ccccc21	i
48	COc1ccc(CCNC(=S)n2cc(C)cn2)cc1OC	i
49	C[C@@H]1CN([C@@H](C)CO)S(=O)(=O)c2ccc(C3=CCCC3)cc2O[C@H]1CN(C)CC1CC1	i
50	CCCN(C)C[C@@H]1Oc2cc(Br)ccc2S(=O)(=O)N([C@H](C)CO)C[C@@H]1C	i

cpd	mol	ID4 SMM
51	C[C@@H]1CN([C@@H](C)CO)C(=O)c2ccccc2-c2ccccc2CO[C@@H]1CN(C)CC1CC1	i
52	COC(=O)C[C@@H]1C=C[C@@H](NC(=O)c2ccccc2)[C@H](CO)O1	i
53	C[C@@H]1CN([C@H](C)CO)S(=O)(=O)c2ccc(-c3cccnc3)cc2O[C@@H]1CN(C)C(=O)NC1CCCCC1	i
54	C[C@@H]1CN([C@H](C)CO)S(=O)(=O)c2ccc(-c3ccc(C(=O)N(C)C)cc3)cc2O[C@@H]1CN(C)Cc1ccccc1C(=O)O	i
55	COc1cccc(C(=O)COc2cccc(NC(=O)c3cccc([N+](=O)[O-])c3)c2)c1	i
56	N#Cc1c(NC(=O)c2cc(S(=O)(=O)N3CCOCC3)cs2)sc2c1CCCC2	i
57	COc1ccc(C#Cc2ccc3c(c2)[C@]2(C(=O)N3)[C@H](C(=O)O)[C@H]3C(=O)O[C@H](c4ccccc4)[C@H](c4ccccc4)N3[C@@H]2c2ccc(O)cc2)cc1	i
58	CCCC#Cc1cnc2c(c1)C(=O)N([C@H](C)CO)C[C@@H](C)[C@@H](CN(C)C(=O)CCN1CCCCC1)O2	i
59	Cc1cc(=O)oc2cc(OC(C)C(=O)Nc3ccccc3[N+](=O)[O-])ccc12 (stereo not drawn)	i
60	COCC(=O)Nc1ccc2c(c1)[C@H]1C[C@H](CC(=O)NCCN3CCCCC3)O[C@H](CO)[C@H]1O2	i
61	C[C@@H]1CN([C@H](C)CO)C(=O)Cc2cc(NC(=O)C3CCCCC3)ccc2O[C@H]1CN(C)CC1CC1	i
62	COC(=O)CNc1c(F)c(F)nc(F)c1F	i
63	C[C@H](CO)N1C[C@H](C)[C@H](CN(C)Cc2ccc(F)cc2)Oc2ncc(-c3cccc(C#N)c3)cc2C1=O	i
64	CNC[C@@H]1Oc2ncc(C#CC3CCCCC3)cc2C(=O)N([C@@H](C)CO)C[C@@H]1C	i
65	COc1ccc(Cl)cc1NC(=O)CN(c1ccc(Br)c(C)c1)S(C)(=O)=O	i
66	OC(CNC1CCCC1)Cn1c2ccc(Cl)cc2c2cc(Cl)ccc21 (stereo not drawn)	i
67	O=C(Nc1cccc2ccccc12)OCCn1ncc2ccccc2c1=O	i
68	C[C@@H](NC(=O)C[C@H]1CC[C@H](NC(=O)CN2CCOCC2)[C@H](CO)O1)c1ccccc1	i
69	O=C(Nc1ccc2c(c1)[C@@H]1C[C@H](CC(=O)N3CCOCC3)O[C@H](CO)[C@@H]1O2)c1cccnc1	i
70	C[C@@H]1CN([C@@H](C)CO)S(=O)(=O)c2ccc(C#CC3CC3)cc2O[C@H]1CN(C)Cc1ccccc1	i
71	C[C@@H]1CN([C@H](C)CO)C(=O)c2cc(C#CC3CCCC3)cnc2O[C@H]1CN(C)C(=O)C1CCCCC1	i
72	CCOc1ccc2nc(SCC(=O)O)nc(C)c2c1	i
73	O=C(Cc1ccccc1)N[C@@H]1CC[C@H](CC(=O)N2CCOCC2)O[C@H]1CO	i
74	O=C(CCSc1nc(-c2ccccc2)cs1)Nc1ccccc1	i
75	Cc1nc2nc[nH]n2c(=O)c1NS(=O)(=O)c1ccc(C2CCCCC2)cc1	i

# Reprinted at random: 2 compounds from above.
cpd	mol	ID4 SMM
6	CCCC(=O)Nc1ccc2c(c1)C(=O)N(C)C[C@@H](OC)[C@H](C)CN(Cc1ccncc1)[C@H](C)CO2	i
28	Cc1ccc(-c2cnc3c(c2)C(=O)N([C@H](C)CO)C[C@@H](C)[C@@H](CN(C)CC2CCCC2)O3)cc1	i

# Compounds above that contain a cyano group (3):
cpd	mol	ID4 SMM
35	C[C@H](CO)N1C[C@H](C)[C@@H](CN(C)Cc2ccccc2)Oc2ncc(-c3cccc(C#N)c3)cc2C1=O	i
56	N#Cc1c(NC(=O)c2cc(S(=O)(=O)N3CCOCC3)cs2)sc2c1CCCC2	i
63	C[C@H](CO)N1C[C@H](C)[C@H](CN(C)Cc2ccc(F)cc2)Oc2ncc(-c3cccc(C#N)c3)cc2C1=O	i

# New compounds follow:
cpd	mol	ID4 SMM
76	CCCN(C)C[C@H]1Oc2cc(C#Cc3cccc(OC)c3)ccc2S(=O)(=O)N([C@H](C)CO)C[C@H]1C	i
77	COc1cccc(-c2cnc3c(c2)C(=O)N([C@@H](C)CO)C[C@@H](C)[C@@H](CN(C)Cc2ccccc2)O3)c1	i
78	Cn1c(NCc2cc(Br)ccc2O)nc2ccccc21	i
79	C[C@@H]1CN([C@H](C)CO)C(=O)c2cc(-c3ccccc3F)cnc2O[C@@H]1CN(C)C(=O)C1CCCCC1	i
80	CC(=O)Nc1ccccc1-c1nc2ccccc2nc1OCC(=O)c1ccc2ccccc2c1	i
81	COc1ccc(OC)c(NC(=O)COc2ccc3c(=O)c(-c4ccccc4OC)c(C(F)(F)F)oc3c2)c1	i
82	COCC#Cc1ccc2c(c1)O[C@@H](CN(C)CC1CCCCC1)[C@@H](C)CN([C@@H](C)CO)S2(=O)=O	i
83	C[C@H](CO)N1C[C@H](C)[C@H](CN(C)S(=O)(=O)c2cccc(F)c2)Oc2ncc(C#CC3CCCCC3)cc2C1=O	i
84	CCC(NS(=O)(=O)c1c(C)[nH]c(=O)[nH]c1=O)C12CC3CC(CC(C3)C1)C2 (stereo not drawn)	i
85	Cc1ccc(-c2cnc3c(c2)C(=O)N([C@@H](C)CO)C[C@H](C)[C@@H](CN(C)C(=O)CN(C)C)O3)cc1	i
86	CN(C)/C=N/C(=S)N1CCOCC1	i
87	CC(=O)c1cccc(NC(=S)NCCn2cc(Cl)cn2)c1	i
88	CCOc1ccc(Oc2nc(Nc3ccc(C)cc3)nc(N(C)C)n2)nn1	i
89	CNC[C@H]1Oc2ncc(-c3ccc(C)cc3)cc2C(=O)N([C@@H](C)CO)C[C@H]1C	i
90	O=C1c2cccc3cccc(c23)C(=O)N1CCN1CCN(C(=S)Nc2cccc(S(=O)(=O)C(F)F)c2)CC1	i
91	COC(=O)c1ccccc1NC(=O)c1ccccc1NS(=O)(=O)c1cccc2cccnc12	i
92	CCCC#Cc1cnc2c(c1)C(=O)N([C@H](C)CO)C[C@@H](C)[C@@H](CN(C)C(=O)C1CC1)O2	i
93	C[C@H](CO)N1C[C@H](C)[C@H](CN(C)Cc2ccc3c(c2)OCO3)OCc2ccccc2-c2ccccc2C1=O	i
94	Cn1c(NC(=O)c2cccc(Cn3cc(Cl)cn3)c2)nc2ccccc21	i
95	CCCOc1ccc(-c2nc(SCC(N)=O)n[nH]2)cc1	i
96	COc1ccccc1-c1ccc([C@H]2[C@@H](CO)N(C(=O)C3CC3)[C@H]2C#N)cc1	i
97	OCCNc1nc2ccc(Cl)cc2[nH]1	i
98	COc1cccc(-c2cnc3c(c2)C(=O)N([C@H](C)CO)C[C@H](C)[C@H](CN(C)C(=O)CC2CC2)O3)c1	i
99	C[C@@H]1CN([C@@H](C)CO)C(=O)Cc2cc(N(C)C)ccc2O[C@H]1CN(C)C(=O)NC1CCCCC1	i
100	Cc1cc(C)nc(NS(=O)(=O)c2ccc(NC(=O)c3ccccc3Cl)cc2)n1	i

# 3 entries out of the list, sorted by formula weight, ascending:
cpd	mol	ID4 SMM
95	CCCOc1ccc(-c2nc(SCC(N)=O)n[nH]2)cc1	i
88	CCOc1ccc(Oc2nc(Nc3ccc(C)cc3)nc(N(C)C)n2)nn1	i
89	CNC[C@H]1Oc2ncc(-c3ccc(C)cc3)cc2C(=O)N([C@@H](C)CO)C[C@H]1C	i

# (next part)
cpd	mol	ID4 SMM
101	CCc1ccc(CCC(=O)Nc2ccc(Cl)cc2Cl)o1	i
102	COCC(=O)N[C@H]1CC[C@H](CC(=O)NCc2ccccc2OC)O[C@@H]1CO	i
103	C[C@H](CO)N1C[C@H](C)[C@@H](CN(C)Cc2ccc(F)cc2)Oc2ncc(-c3ccc(F)cc3)cc2C1=O	i
104	CCc1cc(OCCSc2nc(C)cc(=O)[nH]2)ccc1Cl	i
105	COc1ccccc1NC(=O)CSc1nc(C)cc(C(F)(F)F)n1	i
106	O=C(C[C@H]1CC[C@@H](NC(=O)Nc2ccc3c(c2)OCO3)[C@@H](CO)O1)NCc1ccc(Cl)cc1	i
107	C[C@@H]1CN([C@H](C)CO)C(=O)CCCn2cc(nn2)CO[C@H]1CN(C)CC1CCCCC1	i
108	COc1ccc(C#Cc2cnc3c(c2)C(=O)N([C@H](C)CO)C[C@@H](C)[C@@H](CN(C)C)O3)cc1	i
109	C/C=C/c1cnc2c(c1)C(=O)N([C@H](C)CO)C[C@H](C)[C@H](CN(C)C(=O)Cc1cccnc1)O2	i
110	C[C@@H]1CN([C@@H](C)CO)S(=O)(=O)c2ccc(-c3cccc(C#N)c3)cc2O[C@@H]1CN(C)Cc1ccccn1	i
111	COC(=O)c1ccc(Cl)c(NC(=O)CN(c2cccc(F)c2)S(C)(=O)=O)c1	i

# Compound activity as filed in PubChem.
